# MgrA-DNA mod = alters Staphylococcus aureus MgrA binding to DNA. actives 0.13% (n = 84,000). AID 602314. inhibition, %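 (about 10 µg/mL by stock and volumes)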. fluorescence polarization;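 active = above 50% in either of two replicates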;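 note: 0% = protein plus DNA without compound and 100% = DNA alone without protein; higher means less MgrA bound to DNA so lower polarization; one replicate is shown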
# S aureus helic = S. aureus DNA helicase inhibition; inhibition, %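 (tested at about 80 µM)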; purified S. aureus helicase, fluorescence unwinding assay; about half of the hits fall short of the stated cut; actives 0.05% (n = 120,000);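 active = both duplicates at 50% or more, or one of them with a favoured structure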;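 note: 0% = mean of negative control wells and 100% = mean of positive control wells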
# Active calls of the source: *; nt = no result given. A portion of the library (hit frequency here may not be typical).
no. | Molecule | MgrA-DNA mod | S aureus helic
1 | COc1cc(/C=C2/SC(=NCc3ccccc3)N(Cc3ccccc3)C2=O)cc(OC)c1OC | 3.4 | 14
2 | C[n+]1ccn(-c2ccccc2C#N)c1 | -1.1 | nt
3 | COC(=O)C(C)Sc1nc2c([nH]c3ccccc32)c(=O)n1-c1cc(C)cc(C)c1 (configuration not stated) | nt | -14
4 | CCOC(=O)Cn1c(=NC(=O)c2ccco2)sc2cccc(F)c21 | nt | -5
5 | CCn1c(NCc2ccccc2)nc2ccccc21 | 0.8 | -2
6 | COc1cc(CC(=O)OCC(=O)N2CCCC2=O)cc(OC)c1OC | nt | -5
7 | CCOC(=O)c1cc2c(C)nccn2c1 | -0.9 | nt
8 | COC(=O)c1ccc2c(=O)[nH]c(COC(=O)C3CC4CCCC(C3)C4=O)nc2c1 (configuration not stated) | nt | 11
9 | COC(=O)C1=C(C)Nc2nc(SC)[nH]c(=O)c2C1c1ccccc1 (configuration not stated) | nt | 15
10 | CCOc1cc(NC(=O)C2CC2)c(OCC)cc1NC(=O)CCn1nnc2ccccc21 | -2.6 | 6
11 | Cc1n[nH]c(C)c1S(=O)(=O)N1CCC(C(=O)OCc2ccc(C(C)(C)C)cc2)CC1 | nt | 17
12 | O=C(O)CC(NC(=O)Cc1ccccc1)C(F)(F)F (configuration not stated) | -0.8 | 31
13 | O=S(=O)(c1cccc2nsnc12)N1CCc2ccccc21 | -0.3 | nt
14 | COC(=O)CNC(=O)c1cn(-c2ccccc2)nc1-c1ccc(C)cc1 | -2.1 | -13
15 | C=Cc1ccc(Cn2c(C(=O)O)c(CNCCc3ccc(SC)cc3)c3ccccc32)cc1 | 0.2 | 5
16 | O/N=C1/C2C3CC4C2/C(=N/O)C2C1C3C42 (configuration not stated) | nt | -11
17 | Oc1ccccc1C=NCC1CCC(CN=Cc2ccccc2O)CC1 (configuration not stated) | -0.2 | nt
18 | O=[N+]([O-])c1ccc(OCc2c(F)cccc2Cl)cc1 | 4.1 | nt
19 | N#Cc1ccc(COC(=O)Cn2c(-c3ccccc3)cc3ccccc32)cc1 | nt | 14
20 | CCCC(c1nnnn1Cc1ccc(OC)cc1)N1CCC(C(N)=O)CC1 (configuration not stated) | 3.5 | 13
21 | Oc1ccc(-c2nc3sc(-c4ccc(O)cc4)nc3s2)cc1 | -0.9 | 3
22 | COc1ccc(CNC(=O)c2c(-n3cccc3)sc3c2CCCC3)cc1 | nt | -1
23 | COc1ccc(Nc2nc(N3CCN(C)CC3)nc3ccccc23)c(OC)c1 | -0.8 | 27
24 | CC(C)(C)c1ccc(CCC(CC(=O)O)CC(=O)O)cc1 | nt | -3
25 | CCN(CCCNc1nnc2c3ccccc3n(CC)c2n1)c1cccc(C)c1 | -4.0 | 6
26 | CN1C(=C(C#N)C(=O)COc2ccc(C#N)cc2)N(C)c2ccccc21 | nt | 10
27 | CN(Cc1cccc(Cl)c1)Cc1cc2c(cc1O)CCC2 | nt | -8
28 | Cc1ccc(NC(=O)C2CCCN2S(=O)(=O)c2ccc3nc(-c4ccccc4)[nH]c3c2)cc1 (configuration not stated) | 2.3 | -10
29 | Brc1cc(Br)cc(CSc2ccccn2)c1 | -1.7 | nt
30 | O=C(N/N=C/c1ccco1)C1c2ccccc2Oc2ccccc21 | 1.1 | -5
31 | CCN1C(=S)NC2c3cc(Br)ccc3OC1(C)C2C(=O)Nc1ccc(Cl)cc1 (configuration not stated) | -3.9 | 4
32 | Cc1ccc(S(=O)(=O)NCc2cn3ccccc3n2)c(C)c1 | nt | -14
33 | Cc1ccc(C2OC3=C(C(=O)CC(C)(C)C3)C(N)=C2C#N)o1 (configuration not stated) | 0.2 | -6
34 | COC(=O)c1sc(NC(=O)c2ccccc2)c(C#N)c1C | -2.7 | 8
35 | N/C(=N\OC(=O)CCN1C(=O)c2ccccc2C1=O)c1ccncc1 | 0.5 | 11
36 | Brc1ccc(-c2nnc3sc(CN4CCC5(CC4)OCCO5)cn23)cc1 | -1.5 | 12
37 | FC(F)(F)c1cc(-c2ccccc2)nc(NC2CCCC2)n1 | 2.4 | 4
38 | Cc1nc2ccc(NS(=O)(=O)c3ccccc3C(F)(F)F)cc2o1 | -0.7 | nt
39 | Cc1ccc(CN(C)Cc2cc(=O)oc3cc4c(cc23)CCC4)o1 | nt | 7
40 | O=C(CN1C(=O)COc2ccccc21)N(Cc1ccccc1)Cc1ccccn1 | 17 | -3
41 | CN1CCN2c3ccccc3Cc3ccccc3C2C1 (configuration not stated) | 2.7 | nt
42 | COc1cccc(/C=C2/Sc3ccc(C(=O)NCC(OC)OC)cc3NC2=O)c1 | 0.5 | 3
43 | Cc1ccc2cc(CCNC(=O)C3CCCC3)c(=O)[nH]c2c1 | nt | -18
44 | O=C(Cn1nc(-c2ccccc2)ccc1=O)Nc1nccs1 | nt | 23
45 | COc1cccc(C2CC(c3cccs3)=NN2C(=O)CN2CCN(C)CC2)c1O (configuration not stated) | nt | -10
46 | O=C(c1ccc(Cl)cc1)N1CCc2ccccc2C1 | -0.1 | nt
47 | CCOc1ccccc1OC(=O)c1ccc2ncsc2c1 | nt | 15
48 | CCc1c(C)[nH]c2c1C(=O)C(CN1CCOCC1)CC2 (configuration not stated) | 1.8 | nt

# Single records (already shown). Values in the order: MgrA-DNA mod | S aureus helic
# CCOc1ccccc1OC(=O)c1ccc2ncsc2c1 is entered as nt | 15
# Cc1ccc(CN(C)Cc2cc(=O)oc3cc4c(cc23)CCC4)o1 is entered as nt | 7
# O=C(CN1C(=O)COc2ccccc21)N(Cc1ccccc1)Cc1ccccn1 is entered as 17 | -3
# CN1CCN2c3ccccc3Cc3ccccc3C2C1 (configuration not stated) is entered as 2.7 | nt

# (further entries)
no. | Molecule | MgrA-DNA mod | S aureus helic
49 | Cc1ccc(NC(=S)NNC(=O)c2nn(-c3ccccc3)nc2C)cc1C | 4.1 | nt
50 | COc1ccc(-c2nc(C#N)c(N(C)C)o2)cc1 | nt | -19
51 | CC(CCO)Nc1nc2c(c(=O)n(C)c(=O)n2C)n1Cc1ccccc1Br (configuration not stated) | nt | 9
52 | CCOC(=O)N1CCN(CC(O)COc2ccc(-c3ccccc3)cc2)CC1 (configuration not stated) | nt | 25
53 | NS(=O)(=O)c1ccc(Br)cc1I | 3.9 | nt
54 | C=CC(=O)N1CN(C(=O)C=C)CN(C(=O)C=C)C1 | nt | -12
55 | CCOC(=O)C(C)(C)Sc1nc2c(c(=O)n1-c1ccc(F)cc1)SCC2 | -0.8 | 11
56 | O=C1CC2(CCCC2)CC(=O)N1CCCCN1CCN(c2ncccn2)CC1 | -1.2 | nt
57 | Cc1ccc(OC(=O)Cn2c(C(F)(F)F)nc3ccccc32)cc1 | 1.4 | nt
58 | C(=NCc1cccnc1)c1c2ccccc2cc2ccccc12 | 1.8 | 3
59 | CCCN(CCC)S(=O)(=O)c1ccc(C(=O)Nc2nnc(-c3cccc(OC)c3)o2)cc1 | nt | -21
60 | O=C(Nc1ccc(Cl)c(Cl)c1)c1c(O)c2ccccc2[nH]c1=O | nt | 12
61 | CSc1cccc(NC(=O)C2CCN(S(=O)(=O)c3ccc4[nH]c(=O)oc4c3)CC2)c1 | nt | -3
62 | O=C(OCC1CC1)c1cnc(N2CCOCC2)nc1C(F)(F)F | nt | 13
63 | N#CC1=C(SCC(=O)NCc2ccccc2)NC2=C(C(=O)CCC2)C1c1ccco1 (configuration not stated) | nt | -11
64 | O=S(=O)(NCCN1CCOCC1)c1ccc2ccccc2c1 | 2.4 | -7
65 | COC(=O)COc1cc(OC)ccc1C(=O)OC | -1.0 | nt
66 | CCC(=O)N1C(CC(=O)Nc2ccc(F)cc2)C(=O)NC2CCCCC21 (configuration not stated) | -2.1 | 8
67 | Cc1ccc(OCC(O)CN2CC(C)CC(C)C2)cc1 (configuration not stated) | nt | 8
68 | O=C1CS/C(=N/N=C/c2ccn[nH]2)N1 | -1.8 | nt
69 | CN1CCC(N(C)CC(O)COCc2cccs2)CC1 (configuration not stated) | nt | -4
70 | Cn1c(C(=O)O)ccc1S(=O)(=O)N1CCCCCC1 | -1.3 | nt
71 | N#CCSc1ccc(OC(F)(F)F)cc1 | -2.3 | nt
72 | O=C(O)c1ccc(N=Cc2cn(Cc3ccccc3)c3ccccc23)cc1 | 2.9 | 10
73 | CCN1CCN(CC(O)COc2cccc(C)c2)CC1 (configuration not stated) | nt | 17
74 | CN(C)S(=O)(=O)c1ccc(C(=O)NCCc2ccccc2)cc1 | -2.0 | 5
75 | COc1ccc(CC(=O)Oc2ccc(C#N)cc2)cc1 | -3.4 | 2
76 | O=C(CN1CCC2(CC1)N=C(c1ccccc1)C(=O)N2)Nc1ccc(F)cc1F | nt | 1
77 | CCOC(=O)/C(=N\O)C1=NC2(CCCC2)Cc2cc(OC)c(OC)cc21 | 1.8 | 6
78 | O=C1CC(c2ccc(Cl)cc2)CC(O)=C1C=NCCN1CCNCC1 (configuration not stated) | 1.8 | -9
79 | Oc1ccccc1CNc1ccccc1Br | nt | 13
80 | O=C(O)C1CC(=O)N(CCC23CC4CC(CC(C4)C2)C3)C(=Nc2ccc(Cl)cc2)S1 (configuration not stated) | 8.7 | 18
81 | CCOC(=O)c1ccc2c(c1)nc(SCC(=O)c1ccc3c(c1)OCCO3)n2CC | nt | -15
82 | CC(C)(S)P(=O)(O)c1ccccc1 | -2.4 | 16
83 | CCc1nn(Cc2cccc(C)c2)c(=O)c2cc3cc(C)ccc3n12 | nt | -26
84 | COc1ccc2[nH]c(=O)cc(O)c2c1 | nt | 11
85 | O=C(c1ccc(F)cc1)c1c[nH]c(C(=O)NCc2ccc(F)cc2)c1 | -2.0 | nt
86 | CCCCS(=O)(=O)NC1=NCN(C2CCN(Cc3ccccc3)CC2)CN1 | -1.9 | -2
87 | C=CCc1ccc(NC(C)=O)cc1O | 0.4 | nt
88 | CC(C)(C)OC1CC(C(=O)O)N(C(=O)OCc2ccccc2)C1 (configuration not stated) | nt | -14
89 | O=C(CSc1nc(-c2ccccc2)c(-c2ccccc2)o1)NC1CCS(=O)(=O)C1 (configuration not stated) | nt | -21
90 | CCN(C(=O)c1oc2ccccc2c1C)c1ccccc1 | -1.5 | -9
91 | CCNC(=O)CSc1nnc(-c2cc(OC)c(OC)c(OC)c2)o1 | nt | -5
92 | CC(=O)Oc1cccc2cc(-c3nc(-c4ccc(F)cc4)no3)c(=O)oc12 | nt | -30
93 | Cc1ccc(OC(=O)c2ccc(C(C)(C)C)cc2)c(Br)c1 | -1.9 | nt
94 | Cc1cc(OCc2ccccc2)ccc1[N+](=O)[O-] | -3.3 | nt
95 | O=S(=O)(Cc1ccccc1Cl)N1CCCCC1 | nt | 8
96 | N#CC1=C(C2CC2)CC(c2ccccc2)C(C#N)=C1N (configuration not stated) | nt | 33

# Exported with values under each structure: part of the list above.
# Below each SMILES: MgrA-DNA mod | S aureus helic
60: O=C(Nc1ccc(Cl)c(Cl)c1)c1c(O)c2ccccc2[nH]c1=O
→ nt | 12
61: CSc1cccc(NC(=O)C2CCN(S(=O)(=O)c3ccc4[nH]c(=O)oc4c3)CC2)c1
→ nt | -3
62: O=C(OCC1CC1)c1cnc(N2CCOCC2)nc1C(F)(F)F
→ nt | 13
63: N#CC1=C(SCC(=O)NCc2ccccc2)NC2=C(C(=O)CCC2)C1c1ccco1 (configuration not stated)
→ nt | -11
64: O=S(=O)(NCCN1CCOCC1)c1ccc2ccccc2c1
→ 2.4 | -7
65: COC(=O)COc1cc(OC)ccc1C(=O)OC
→ -1.0 | nt

# Further records follow:
no. | Molecule | MgrA-DNA mod | S aureus helic
97 | COC(=O)C(Cc1c[nH]c2ccccc12)NS(C)(=O)=O (configuration not stated) | nt | -10
98 | O=C(CCc1ccco1)Nc1ccc(-c2nnc3n2CCCCC3)cc1 | nt | -5
99 | OCC#Cc1ccc(-c2cccnc2)s1 | 0.8 | nt
100 | O=C1NC2(CCN(C(=O)c3ccc(Cl)cc3)CC2)N=C1c1ccccc1 | nt | -10
101 | CC(C)(C)/C=N/NC(=O)c1nc(-c2ccc(C(C)(C)C)cc2)no1 | nt | -15
102 | O=c1ccc(-c2ccc(S(=O)(=O)NCCN3CCCC3)s2)n[nH]1 | nt | 4
103 | CN(C)/N=C/c1ccc(P(N2CCOCC2)N2CCOCC2)o1 | nt | -13
104 | CC(=O)Nc1ccc(OC(=O)N2CCCC2)cc1 | -1.6 | 8
105 | CC1(C)Oc2ccc(C#N)cc2[C@@H](OC2=CC(=O)CC2)[C@@H]1O | -0.4 | nt
106 | O=C(/C=C/c1ccco1)N(Cc1ccco1)Cc1cccs1 | nt | -4
107 | CCCCOC(=O)c1ccc(NC(=O)CN2C(=O)S/C(=C\c3ccccc3)C2=O)cc1 | 1.2 | nt
108 | Nc1ccc(Br)cc1C(O)c1ccccc1Cl (configuration not stated) | -1.4 | 2
109 | CC(C)(C)c1csc(N)c1C#N | -2.0 | nt
110 | CCCc1cc(C(=O)N2CCCCCCC2)cs1 | 0.3 | 0
111 | O=C(c1ccc(F)cc1)N1CCCCC(Sc2ncnc3sc4c(c23)CCC4)C1=O (configuration not stated) | 2.8 | 7
112 | Cc1cc(C)n(CCc2nc3c4ccccc4nc(NCCC(C)C)n3n2)n1 | nt | -23
113 | CCOC(=O)c1cc(-c2nnc(-c3ccc(C)cc3)o2)c(C)nc1C | nt | 5
114 | CCc1nnc(N2C(=O)c3ccccc3C2(O)c2ccc(Cl)cc2)s1 (configuration not stated) | nt | 17
115 | COc1ccc(C(=O)Oc2ccc3c(C)cc(=O)oc3c2)cc1OC | nt | 7
116 | C=CCN1C(=O)NC(=O)/C(=C/c2ccc(OCc3ccc(Cl)cc3)c(OC)c2)C1=O | 3.9 | nt
117 | Cc1ccc(C2=NC(=O)/C(=C/c3cc(O)c(O)c(Br)c3)S2)cc1 | 18 | 12
118 | O=c1c(-c2ccc3c(c2)OCCO3)coc2cc(O)cc(O)c12 | nt | 23
119 | COc1ccc(C(=O)NCc2nnc(SCC(=O)c3ccccc3)n2C)cc1 | 0.9 | 8
120 | CCOc1cc(C2c3c(oc4ccc(F)cc4c3=O)C(=O)N2CCc2ccc(OC)cc2)ccc1O (configuration not stated) | 0.0 | 15
121 | CCc1ccc(NC(=O)CSC2=C(C#N)C3(CCCCC3)C(C#N)C(=O)N2)cc1 (configuration not stated) | nt | -19
